Choline anaer gr – blocks anaerobic gram-negative growth on choline | calls only | 55,000 compounds, 0.2% hits | Gram-negative bacterium anaerobic choline minimal medium, absorbance growth; active compounds read low; many inactives read as strong as hits in the columns shown;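 active = growth z-score on choline under -2 at 7 or 20 h with little or no fall on glycerol, limits in tiers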;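 note: stock transfer was 300 nL into about 50 µL; the organism is E. coli; final concentration not given here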
Choline anaer gr early – second read-out of Choline anaer gr, no call of its own (marks repeat the call); z-score; measured here: choline growth z-score, timepoint 1;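 score of optical density at 7 h as mean of two plates; lower means less growth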
* marks the source's active call; other numbers are inactive results; i = inactive; & = joins results of further samples. An excerpt; count on the stated rates, not on these rows.

Order of results – Choline anaer gr	Choline anaer gr early
#1 CN1CCN(C2CCN(C(=O)c3ccc4c(c3)OCO4)CC2)C1=O
  i	-0.38
#2 Cc1cccc(NC(=O)c2sc3ncn(CC(=O)N4CCN(c5ccccn5)CC4)c(=O)c3c2C)c1
  i	0.61
#3 CS(=O)(=O)Nc1ccc(C2(C(=O)NCCC3=CCCCC3)CCCCC2)cc1
  i	-2.1
#4 COc1ccc(OCC(=O)NCC(c2ccc(OC)cc2)N2CCCCC2)cc1 (stereo unspecified)
  i	-0.48
#5 CCOC(=O)c1c(C)c(-c2ccccc2)n(CC(=O)N2CCN(c3ccccn3)CC2)c1C
  i	-0.31
#6 O=C(Nc1ccc(Oc2ccccc2)cc1)C1Nc2ccccc2S(=O)(=O)N1 (stereo unspecified)
  i	-0.86
#7 Cn1cc(S(=O)(=O)N2CCC(C(=O)NCc3cccnc3)CC2)cc1C(=O)N1CCCC1
  i	-0.36
#8 Cc1nc(N2CCOCC2)cc(N2CCN(C(=O)C(C)C)CC2)n1
  i	-0.04
#9 CCc1onc(C)c1C1CCCN1C(=O)c1c(Br)cnn1C (stereo unspecified)
  i	-1.1
#10 CCCCCn1c(C2CC(=O)N(Cc3ccccc3)C2)nc2ccccc21 (stereo unspecified)
  i	0.26
#11 CCc1ccc(NC(=O)c2cccc(-c3cc(Oc4ccccc4OC)ncn3)c2)cc1
  i	0.85
#12 CC(C)NC(=O)N1CCCC(c2cccc(C(=O)N3CCCC3)c2)C1 (stereo unspecified)
  i	0.09
#13 COc1cccc(C(=O)NCc2nnc(C(=O)Nc3ccc(F)cc3)s2)c1
  i	-0.72
#14 Cn1c([N+](=O)[O-])cc[n+]1C
  i	-0.1
#15 CC(C)Cn1c(=O)c(-c2ccc(C(=O)NCCCN(C)C)cc2)nc2ccccc21
  i	-0.16
#16 Cc1noc(-c2ccc(S(=O)(=O)N3CCOCC3)s2)c1C
  i	-0.94
#17 O=S(=O)(NCCC1=CCCCC1)c1ccc(-c2cc(C(F)(F)F)on2)o1
  i	0.57
#18 O=C(NC(Cc1c[nH]c2ccccc12)C(=O)O)c1ccc(Cl)cc1 (stereo unspecified)
  i	0.29
#19 Cc1ccc(NC(=O)Nc2ccc(SCc3nnc(-c4ccccc4)o3)cc2)cc1
  i	-0.33
#20 CCc1nccn1Cc1nc(C2CCCCC2)no1
  i	0.56
#21 O=S(=O)(Nc1ccc(-c2ccc(N3CCOCC3)nn2)cc1)c1ccc(Cl)cc1
  i	0.1
#22 COc1ccc(NC(=O)CSc2nnc3c4c(C)c(C)sc4ncn23)cc1
  i	0.64
#23 Cc1nn(C(C)C(=O)Nc2cc(F)ccc2F)c(=O)c2nn(-c3ccccc3)c(C)c12 (stereo unspecified)
  i	0.98
#24 O=C(Nc1ccc(Cl)cc1)c1cccc(NC2=NC3CS(=O)(=O)CC3S2)c1 (stereo unspecified)
  i	0.38
#25 O=C(Nc1ccsc1-c1nnc(C2CC2)o1)c1cccs1
  i	2.9
#26 CCOC(=O)c1c(C)[nH]c(C(=O)N2CCCC(C(=O)NC(C)C)C2)c1C (stereo unspecified)
  i	-0.01
#27 Cc1cccc(NC(=O)CSc2nc3c(c(=O)[nH]2)CN(Cc2ccccc2)CC3)c1
  i	-0.14
#28 COc1ccccc1CNC(=O)c1nc[nH]c1C(=O)NCc1ccccc1
  i	-0.46
#29 Cc1cc(N2CCCCC2)nc(N2CCN(C(=O)c3ccc(C(C)(C)C)cc3)CC2)n1
  i	0.6
#30 O=S(=O)(Nc1ccc(-c2cn3ccccc3n2)cc1)c1ccc(F)cc1
  i	-0.34
#31 COc1ccc(-c2noc(N3CCC(C(=O)NCCC4=CCCCC4)CC3)n2)cc1
  i	1.2
#32 O=C(CC(c1ccc(F)cc1)N1Cc2ccccc2C1=O)NCc1cccnc1 (stereo unspecified)
  i	-0.17
#33 CC(=O)N1CCCCC1CCN1CCCCC1 (stereo unspecified)
  i	0.67
#34 Cc1ccc(C2c3cccn3-c3c(c(C)nn3-c3ccccc3)CN2C(=O)Nc2ccc3c(c2)OCO3)cc1 (stereo unspecified)
  i	-0.56
#35 Cc1ccc(-n2nc(N3CCN(S(=O)(=O)c4cccc5nsnc45)CC3)ccc2=O)cc1C
  i	0.23
#36 COC(=O)c1ccc(N2CCN(C)CC2)c(NC(=O)Cc2ccc(F)cc2)c1
  i	-0.33
#37 Cc1cc(-c2ccc(=O)[nH]n2)cc(S(=O)(=O)N2CCN(c3ccccc3F)CC2)c1C
  i	0.57
#38 CN1CCN(C(=O)c2ccc(-c3cc(N4CCCCC4)ncn3)cc2)C(c2ccccc2)C1 (stereo unspecified)
  i	0.27
#39 COc1cccc(NC(=O)N(Cc2nnc3n2CCCCC3)c2ccccc2)c1
  i	0.2
#40 CC(=O)Nc1ccc(C)cc1-c1nnc(SC(C)C(=O)Nc2ccc(C)cc2C)[nH]c1=O (stereo unspecified)
  i	0.16
#41 Cc1ccc(COc2ccc(C3CC(=O)Nc4nc(N)[nH]c(=O)c43)cc2)cc1 (stereo unspecified)
  i	0.11
#42 Cn1c(=O)c(-c2noc(C(=O)N3CCN(C4CCCCC4)CC3)n2)nn(-c2ccc(F)cc2)c1=O
  i	-0.77
#43 CCCCOc1ccc(-c2cc3c(N4CCC(C(=O)N5CCSCC5)CC4)nccn3n2)cc1
  i	0.66
#44 Cc1cccc(-c2cc(Nc3cccc(C(=O)NCCC(C)C)c3)ncn2)c1
  i	-2
#45 NC[C@@H]1O[C@H](c2ccccc2)Cc2c1ccc(O)c2O
  i	0.22
#46 Cc1ccc(C(=O)N2CCc3cc4ccc(C)cc4nc32)cc1
  i	-0.58
#47 O=C(CCC(=O)N1CCSc2ncccc21)NCc1ccccc1Cl
  i	-0.22
#48 Cc1nc2cc(C(=O)NCCc3c[nH]c4ccccc34)ccc2n(Cc2ccccc2)c1=O
  i	-0.35
#49 COc1ccc(C(=O)N2CCC(C(=O)NCCc3csc(-c4ccccc4)n3)CC2)cc1
  i	-1.4
#50 CCNc1cc(C)nc(Nc2ccc(NS(=O)(=O)c3ccc(C)c(C)c3)cc2)n1
  i	-0.15
#51 Cn1cc(C(=O)OCC2CCN(CCNS(C)(=O)=O)CC2)c2ccccc21
  i	1.5&0.69
#52 COc1cc(N2CCn3c(nc4ccccc43)C2)ccc1NC(=O)Nc1ccccc1
  i	0.67
#53 CCOC(=O)Cn1cc(S(=O)(=O)NC2CCCCC2)c(S(=O)(=O)NC2CCCCC2)c1
  i	0.45
#54 CC(C)(C)C(=O)C(Oc1ccc(Cl)cc1)n1ccnc1 (stereo unspecified)
  i	0.43&-0.49
#55 COc1ccc(OCC(=O)Nc2ccccc2SCc2cc(=O)n3c(ncn3C(C)C)n2)cc1
  i	-0.41
#56 Cc1ccc(NC(=O)CN2C(=O)c3ccccc3S2(=O)=O)c(C)c1
  i	0.04
#57 Cc1ccccc1CN1C(=O)CCn2nccc21
  i	0.21
#58 CC[C@@H]1Cn2c(c3nc(-c4ccccc4)nc-3n(C)c2=O)N1
  i	0.21
#59 CCN1CCN(C(=O)c2cccc(F)c2)c2cccnc21
  i	-0.36
#60 Cn1c(N2CCCC(C(=O)NCCC3=CCCCC3)C2)cc(=O)n(C)c1=O (stereo unspecified)
  i	0.37

The last five compounds of the section before lead into the next:
Order of results – Choline anaer gr	Choline anaer gr early
#56 Cc1ccc(NC(=O)CN2C(=O)c3ccccc3S2(=O)=O)c(C)c1
  i	0.04
#57 Cc1ccccc1CN1C(=O)CCn2nccc21
  i	0.21
#58 CC[C@@H]1Cn2c(c3nc(-c4ccccc4)nc-3n(C)c2=O)N1
  i	0.21
#59 CCN1CCN(C(=O)c2cccc(F)c2)c2cccnc21
  i	-0.36
#60 Cn1c(N2CCCC(C(=O)NCCC3=CCCCC3)C2)cc(=O)n(C)c1=O (stereo unspecified)
  i	0.37
#61 Cc1nnc(-c2coc(S(=O)(=O)N3CCC(N4CCCCC4)CC3)c2)o1
  i	0.58
#62 COc1ccccc1CNC(=O)C1c2c(C)nn(-c3ccccc3)c2SCC(=O)N1c1ccc(F)cc1 (stereo unspecified)
  i	1.5
#63 C=C1C(=O)O[C@@H]2/C=C(\C)CC/C=C(\C)CC[C@@H]12
  i	0.17
#64 COc1ccc(S(=O)(=O)N2CCN(c3cc(-c4cc(F)ccc4OC)ncn3)CC2)cc1Cl
  i	-0.15
#65 CC1(C(=O)NCc2ccc(F)cc2)Cn2c(cc3ccsc32)C(=O)N1C1CC1 (stereo unspecified)
  i	0.5
#66 Cc1nnc(N2CCN(C(=O)Nc3ccccc3F)CC2)c2nn(-c3ccc(Cl)cc3)c(C)c12
  i	-1.4
#67 CCOC(=O)c1[nH]c(C)c(CN(Cc2ccc(OC)cc2)C(=O)Nc2cc(C)ccc2OC)c1C
  i	1.6
#68 COCCNC(=O)N1CCC2(C1)C(=O)N(C)c1ccccc12 (stereo unspecified)
  i	-0.04
#69 CN1C(C(=O)c2ccccc2)=C(OC(=O)CN2C(=O)CCC2=O)c2ccccc2S1(=O)=O
  i	0.62
#70 NC(=O)CC[C@H](N)C(=O)O
  i	-0.07&-0.3
#71 CCOC(=O)c1ccc(Nc2nc(C)c3ncn(-c4ccc(C(=O)OCC)cc4)c3n2)cc1
  i	-0.17
#72 Cc1cc(C)c(C(=O)N2CCCC(C(=O)N3CCN(c4ccccc4)CC3)C2)[nH]1 (stereo unspecified)
  i	0.22
#73 COc1ccc(C)cc1NC(=O)Nc1c(-c2ccncc2)[nH]c2ccccc12
  i	0.25
#74 O=C(CCC(=O)N1CCc2cc(S(=O)(=O)N3CCCc4ccccc43)ccc21)N1CCOCC1
  i	-0.92
#75 O=C(NCc1ccccc1)c1ccc2c(=O)nc3c(-c4ccccc4)n[nH]n3c2c1
  i	1.7
#76 COCCCNC(=O)CN1CCN(c2ccc(NC(=O)C3CCC3)c(C(=O)O)c2)CC1
  i	1.2
#77 COc1ccc(C2=Nc3cc(C)c(C)cc3NC(=O)C2)cc1
  i	0.76
#78 COc1cccc(CC(=O)NCC(=O)Nc2nc3ccccc3[nH]2)c1
  i	-0.51
#79 Cc1ccc(-n2ccn3c(CCCC(=O)N4CCN(c5ccccn5)CC4)nnc3c2=O)cc1C
  i	-2
#80 CN(C(=O)c1cnc(N2CCCCC2)c2ccccc12)C1CCCCC1
  i	0.65

Entries of single compounds from above. Order of values: Choline anaer gr	Choline anaer gr early
COc1ccc(S(=O)(=O)N2CCN(c3cc(-c4cc(F)ccc4OC)ncn3)CC2)cc1Cl as listed: i	-0.15
CC(=O)Nc1ccc(C)cc1-c1nnc(SC(C)C(=O)Nc2ccc(C)cc2C)[nH]c1=O (stereo unspecified) as listed: i	0.16
Cc1cc(C)c(C(=O)N2CCCC(C(=O)N3CCN(c4ccccc4)CC3)C2)[nH]1 (stereo unspecified) as listed: i	0.22
Cc1cccc(-c2cc(Nc3cccc(C(=O)NCCC(C)C)c3)ncn2)c1 as listed: i	-2

(cont.)
Order of results – Choline anaer gr	Choline anaer gr early
#81 COc1ccc(-c2nonc2NC(=O)C(C)Oc2ccc(C(C)(C)C)cc2)cc1OC (stereo unspecified)
  i	0.44
#82 CC(=O)Nc1cccc(N2CC(C(=O)Nc3ccc4c(c3)OCO4)CC2=O)c1 (stereo unspecified)
  i	-1.9
#83 Cc1ccccc1OCC(=O)Nc1cc(-c2ccccc2)nn1-c1ccccc1
  i	0.84
#84 CCCS(=O)(=O)N1CCCC(c2nc(CNC(=O)C3CC3)cs2)C1 (stereo unspecified)
  i	-1.6
#85 COc1cc(OC)c(NC(=O)CC2COc3ccccc3NC2=O)cc1Cl (stereo unspecified)
  i	0.7
#86 COc1ccc(OC)c(NC(=O)c2ccc(-n3nc(OCc4ccc(Cl)cc4)ccc3=O)cc2)c1
  i	0.41
#87 COCCN1C(=O)CN(C2CCCCC2)C(=O)C1c1ccc(OC)c(OC)c1 (stereo unspecified)
  i	-0.23
#88 COc1ccccc1CNC(=O)c1ccc(N2CCCC2)c(NC(=O)Nc2cccc(Cl)c2)c1
  i	-0.73
#89 CN1CCN(c2nc(N3CCN(C4CCCCC4)CC3)nc3c2cnn3C)CC1
  i	0.05
#90 CN(C)CCNC(=O)C(=O)NCc1n[nH]c(=O)c2ccccc12
  i	-0.92
#91 CN1CCN(CCNC(=O)CN2C(=O)CN(C(=O)NCc3ccccc3)c3ccccc32)CC1
  i	0.54
#92 COc1ccc2[nH]cc(CCNC(=O)C(C)C3CCN(S(=O)(=O)c4c(C)noc4C)CC3)c2c1 (stereo unspecified)
  i	-0.56
#93 CC(C)Cn1c(=O)c(=O)[nH]c2cc(-c3noc(-c4ccnn4C)n3)ccc21
  i	0.59
#94 O=C(CCc1nc(-c2cccnc2)no1)NC1CCCCC1
  i	-1.1
#95 COC(=O)c1ccc2c(c1)N(Cc1ccc(F)cc1)C(=O)CS2
  i	-0.32
#96 COc1cccc(CNC(=O)CSc2nc3c(-c4ccccc4)csc3c(=O)n2C)c1OC
  i	0.92
#97 O=C(c1cc2c(s1)-c1ccccc1S(=O)(=O)C2)N1CCN(c2ccccn2)CC1
  i	0.79
#98 Cc1nc(-c2cccc(C(=O)N3CCN(C(c4ccccc4)c4ccccc4)CC3)c2)no1
  i	0.11
#99 Cc1[nH]nc(-n2cnnc2)c1NS(=O)(=O)c1cccc2nsnc12
  i	-0.1
#100 Cc1ccc(C(=O)Nc2cc(F)c3[nH]c(=O)ccc3c2)cc1
  i	1.1
#101 Cc1noc(C)c1C1CCCN1C(=O)c1c(Cl)cnn1C (stereo unspecified)
  i	1.5
#102 Cc1ccc(CCNC(=O)c2cc3c(C)nccc3[nH]c2=O)cc1
  i	-0.15
#103 CN1CCN(c2oc(-c3ccccc3)nc2S(=O)(=O)c2ccccc2)CC1
  i	-0.69
#104 COC(=O)c1ncn2c1C(=O)N(C1CC1)C(C)(C(=O)NC1CCCC1)C2 (stereo unspecified)
  i	-0.37
#105 COCCCNC1=NCCNC12CCN(S(=O)(=O)c1ccc(C)cc1C)CC2
  i	-0.5
#106 NS(=O)(=O)c1ccc(NC(=O)C2CCCN(c3ccc(=O)n(-c4cccc(F)c4)n3)C2)cc1 (stereo unspecified)
  i	-0.8
#107 CC(C)C(=O)N1CCc2c(c(C(=O)N3CCC(C(=O)N4CCCCC4)CC3)nn2C)C1
  i	-0.7
#108 CCCn1c(CN2CCCC2)nc2cc(NC(C)=O)ccc21
  i	-0.66
#109 CC(C)(C)C(=O)NCCc1nc2ccccc2n1CCCCOc1ccccc1
  i	0.3

From PubChem
